Source: PubChem BioAssay
miR-21 reporter – qHTS Assay for Modulators of miRNAs and/orActivators of miR-21; HeLa miR-21 FLuc reporter, luciferase, 48 h; Potency, µM (series often up to 38.3 µM), for the others: at the highest dose reporter change, positive = more light; 340,000 tested, under 10 active; AID 2288, 2010; active = well fitted rising curve with a large enough effect; inconclusive = small, poorly fitted or top-dose-only effect; inactive = no such curve, though single readings can be large or run the other way;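 also: % of control where 0% means no effect; miR-21 action dims this reporter so a rising signal means less miR-21 action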
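HeLa miR-21-FLuc reporter line, endogenous miR-21; 2000 cells/well in DMEM/10% FBS; compound titration up to ~40uM final, 48 h, 37 degree Celsius; luciferase detection reagent, 15 min lysis, CCD luminescence.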
Active calls of the source: *.

For COc1ccc(C2CC(=O)N(Cc3ccccc3)c3c2c(C)nn3-c2nc(C)cc(C)n2)c(OC)c1 (stereo not drawn) the results were miR-21 reporter -6.7%.
`CC(=O)c1ccc(NC(=O)CSc2nc(=O)n(Cc3ccccn3)c3c2CCC3)cc1` gave miR-21 reporter -1.8%.
Cc1ccc(Nc2c(-c3cccc(Cl)c3)nc3cccc(C)n23)cc1 was read as miR-21 reporter 14.4%.
For CCOC(=O)c1ccn(-c2nc(-c3cccc(OC)c3)cc(C(F)(F)F)n2)n1 the results were miR-21 reporter 24.1%.
`CCOc1ccc(-c2c(C)nn3c(C)c(C(=O)Nc4ccccc4C(=O)OC)cnc23)cc1OCC` gave miR-21 reporter 1.6%.
`COc1ccc(NC(=O)C2CCCN(S(=O)(=O)c3ccc4[nH]c(=O)ccc4c3)C2)cc1Cl` (stereo not drawn) gave miR-21 reporter -8.9%.
`Cc1cc(C)cc(NC(=O)C2CCC(CNS(=O)(=O)c3ccc4c(c3)C(C)(C)C(=O)N4C)CC2)c1` (stereo not drawn) gave miR-21 reporter inconclusive.
`CCCCc1nn2c(=O)cc(COC(=O)COc3ccc(C)cc3)nc2s1` gave miR-21 reporter -1.1%.
For CCOC(=O)N1CCc2c(sc3c2c(=O)n(Cc2ccccc2)c(=O)n3CC(=O)Nc2ccc(C)cc2C)C1 the results were miR-21 reporter 6.4%.
Cc1cccc(N2C(=O)CSC23C(=O)N(CC(=O)NCCc2ccccc2)c2ccccc23)c1 (stereo not drawn) was read as miR-21 reporter inconclusive.
`Cc1ccc(C(=O)c2oc3ccccc3c2NC(=O)COc2ccc(Cl)c(C)c2)cc1` gave miR-21 reporter -6.1%.
`Cc1ccc(C)c(S(=O)(=O)c2nnn3c2nc(Nc2ccc(C)c(C)c2)c2sccc23)c1` gave miR-21 reporter 1.9%.
Screening Cc1cc(C)c(NC(=O)C(C)n2nnc3sc(-c4ccccc4)cc3c2=O)c(C)c1 (stereo not drawn) returned miR-21 reporter -0.1%.
CC(C)NC(=O)c1ccccc1NC(=O)c1nsc2ccccc12 was read as miR-21 reporter -14.7%.
`Cc1ccc(NC(=O)CSc2nc3ccccc3n2CC(=O)N(C)C2CCCCC2)cc1C` gave miR-21 reporter 0.3%.
Screening COc1ccc(NCc2cccn2-c2nnc(N3CCOCC3)s2)cc1OC returned miR-21 reporter -14.0%.
For CCc1ccccc1-n1c(C)nc2cc(C(=O)NCCc3ccc(Cl)cc3)ccc21 the results were miR-21 reporter -9.2%.
`O=C(C1CCCCC1)N(Cc1cccnc1)c1nc2ccc(F)cc2s1` gave miR-21 reporter -8.5%.
Screening Cc1cc2oc(C(=O)Nc3c(C(=O)Nc4ccccc4)oc4ccccc34)cc(=O)c2cc1C returned miR-21 reporter -3.0%.
`CC(=O)c1ccc(NC(=O)c2cc3sccc3n2Cc2ccc(Cl)cc2)cc1` gave miR-21 reporter 16.1%.

Nothing new here: six of the compounds above.
`CC(=O)c1ccc(NC(=O)CSc2nc(=O)n(Cc3ccccn3)c3c2CCC3)cc1` gave miR-21 reporter -1.8%.
Cc1ccc(Nc2c(-c3cccc(Cl)c3)nc3cccc(C)n23)cc1 was read as miR-21 reporter 14.4%.
For CCOC(=O)c1ccn(-c2nc(-c3cccc(OC)c3)cc(C(F)(F)F)n2)n1 the results were miR-21 reporter 24.1%.
`CCOc1ccc(-c2c(C)nn3c(C)c(C(=O)Nc4ccccc4C(=O)OC)cnc23)cc1OCC` gave miR-21 reporter 1.6%.
`COc1ccc(NC(=O)C2CCCN(S(=O)(=O)c3ccc4[nH]c(=O)ccc4c3)C2)cc1Cl` (stereo not drawn) gave miR-21 reporter -8.9%.
`Cc1cc(C)cc(NC(=O)C2CCC(CNS(=O)(=O)c3ccc4c(c3)C(C)(C)C(=O)N4C)CC2)c1` (stereo not drawn) gave miR-21 reporter inconclusive.

(more compounds)
Screening CCOC(=O)c1cc(NC(=O)c2ccc(OC)cc2)c(=O)n2c1oc1ccc(Cl)cc12 returned miR-21 reporter 0.5%.
CCc1ccc(Nc2sc(C(=O)c3ccccc3)c(N)c2S(C)(=O)=O)cc1 was read as miR-21 reporter -11.8%.
O=S(=O)(c1ccc(-c2cc(C(F)(F)F)on2)s1)N1CCN(c2ccccc2F)CC1 was read as miR-21 reporter 3.5%.
COc1ccc(N2CCN(S(=O)(=O)c3ccc4c(c3)CCCN4C(C)=O)CC2)cc1 was read as miR-21 reporter 0.7%.
O=C(COC(=O)c1cc(-c2ccccc2)nc2c(Cl)cccc12)c1ccc(F)cc1 was read as miR-21 reporter -8.7%.
Screening Cc1cccc(CN2C(=O)c3ccccc3S(=O)(=O)c3ccc(C(=O)NC4CCCCC4)cc32)c1 returned miR-21 reporter -2.0%.
Screening COc1ccc(NC(=O)Cn2c(=O)n(-c3cccc(C)c3)c(=O)c3c2c2cc(C)ccc2n3C)cc1OC returned miR-21 reporter -5.2%.
Screening CCOC(=O)c1ccccc1NC(=O)N(Cc1ccc(CC)cc1)Cc1cn[nH]c1-c1ccc(OC)cc1 returned miR-21 reporter -2.0%.
`CCCCN(C)CCNC(=O)c1cc2c(=O)n(C)c3ccccc3c2n1C` gave miR-21 reporter -17.5%.
COc1ccc(NC(=O)NC(C)c2c(-n3cccc3)sc3c2CCN(C)C3)c(OC)c1 (stereo not drawn) was read as miR-21 reporter -0.6%.
For Cc1ccc2cccc(NC(=O)c3ccc(-c4cccc([N+](=O)[O-])c4)o3)c2n1 the results were miR-21 reporter -0.2%.
`Cc1ccc(Cn2ccc(NC(=O)c3cc(-c4ccc(Cl)c(Cl)c4)on3)n2)cc1` gave miR-21 reporter 0.9%.
Cc1cccc(NC(=O)Cn2c(=O)oc3cc(S(=O)(=O)N4CCCCCC4)ccc32)c1 was read as miR-21 reporter 1.7%.
O=c1oc2ccc(Cl)cc2cc1-c1cn2c(n1)sc1ccccc12 was read as miR-21 reporter 4.1%.
CCCn1c(=O)c2sccc2n2c(CCCC(=O)Nc3ccc(Oc4ccccc4)cc3)nnc12 was read as miR-21 reporter 15.4%.
Screening COc1cccc(CNC(=O)C2CCCN(S(=O)(=O)c3ccc4c(ccn4C)c3)C2)c1 (stereo not drawn) returned miR-21 reporter inconclusive.
`Cc1ccccc1C(=O)NCc1ccc2c(c1)CCN2C(=O)c1ccccc1` gave miR-21 reporter inconclusive.
`CCCCc1ccc(NC(=O)Cn2cnc3c(oc4ccccc43)c2=O)cc1` gave miR-21 reporter -9.2%.
Screening CC1CN(C(=O)N2CCC(C(=O)NCc3cccs3)CC2)c2cc(Cl)ccc2O1 (stereo not drawn) returned miR-21 reporter 0.6%.
Screening CCC(CC)C(=O)Nc1ccc(C(=O)OCc2cc(=O)n3nc(C4CC4)sc3n2)cc1 returned miR-21 reporter 3.2%.

Structures above that contain an NH in an aromatic ring:
`COc1ccc(NC(=O)C2CCCN(S(=O)(=O)c3ccc4[nH]c(=O)ccc4c3)C2)cc1Cl` (stereo not drawn) gave miR-21 reporter -8.9%.
Screening CCOC(=O)c1ccccc1NC(=O)N(Cc1ccc(CC)cc1)Cc1cn[nH]c1-c1ccc(OC)cc1 returned miR-21 reporter -2.0%.

(next part)
Screening COc1cccc(NC(=O)CSc2c(C)cnc3c2c(=O)n(C)c(=O)n3C)c1 returned miR-21 reporter 5.4%.
`COc1ccc(CNC(=O)CSc2c3c(nc4ccc(Cl)cc24)CCCC3)cc1` gave miR-21 reporter -8.5%.
Screening O=C(Cn1ncc2ccsc2c1=O)N1CCN(c2ccc(Cl)cc2)CC1 returned miR-21 reporter 14.6%.
Screening O=C(CN(c1cccc(C(F)(F)F)c1)S(=O)(=O)c1ccccc1)Nc1cccc(Cl)c1 returned miR-21 reporter inconclusive.
`COc1ccc(NS(=O)(=O)c2cc3[nH]c(=O)c(=O)[nH]c3cc2C)cc1OC` gave miR-21 reporter -4.8%.
Screening COc1ccc2c(Sc3ccccc3)c(C(=O)NCc3cccc(OC)c3OC)[nH]c2c1 returned miR-21 reporter 14.6%.
Screening CCOC(=O)Cc1ccc(NC(=O)N(Cc2ccc(OC)cc2)C2CCN(C(C)=O)CC2)cc1 returned miR-21 reporter -6.1%.
`CCOc1cccc2sc(N3CCN(C(=O)C(C)(C)C)CC3)nc12` gave miR-21 reporter -17.6%.
Screening CCC1CCc2nc3sc(C(=O)Nc4cccc(F)c4)c(N)c3cc2C1 (stereo not drawn) returned miR-21 reporter 8.7%.
`CCCCN(C)C(=O)c1ccc2c(=O)n3nc(Nc4cc(C)ccc4C)sc3nc2c1` gave miR-21 reporter 3.8%.
CCOc1ccc(CNC(=O)C2CCN(c3nnc(-n4cccc4CNc4ccc(C)cc4)s3)CC2)cc1OC was read as miR-21 reporter -4.5%.
For Cc1nnc(NC(=O)CSc2nc3c([nH]c4ccccc43)c(=O)n2-c2ccccc2)s1 the results were miR-21 reporter -6.7%.
For CCCn1c(=O)c2sccc2n2c(CCCC(=O)N3CCN(c4ccc(OC)cc4)CC3)nnc12 the results were miR-21 reporter 8.9%.
`COC(=O)c1cccnc1-n1c(=O)c2cccnc2n(CC(=O)Nc2cccc(C)c2)c1=O` gave miR-21 reporter -11.0%.
COc1cccc(Cn2nnc(C(=O)NCc3ccc(Cl)cc3Cl)c2N)c1 was read as miR-21 reporter 2.4%.
Screening O=C(c1cc2ccc3cccnc3c2[nH]1)N1CCN(c2cccc(Cl)c2)CC1 returned miR-21 reporter -30.2%.
O=C(CSc1nccn1-c1ccc(Cl)cc1)Nc1nc2ccccc2s1 was read as miR-21 reporter -3.1%.
For COc1cc(NC(=O)CSc2nc3ccccc3nc2Cc2ccccc2OC)cc(OC)c1 the results were miR-21 reporter -2.3%.
`O=C1CN(C(=O)COc2ccc(Cl)cc2)C(c2ccccc2)c2cc(Br)ccc2N1` (stereo not drawn) gave miR-21 reporter inconclusive.
Cc1ccc(NC(=O)C2CCN(c3ncccn3)CC2)cc1F was read as miR-21 reporter -4.5%.
`CCn1c(SCC(=O)Nc2ccc(C)cc2Br)nnc1-c1nonc1NC(C)=O` gave miR-21 reporter 0.5%.
Screening CCOc1ccccc1NC(=O)Cn1c(=O)ccc2cc(S(=O)(=O)N3CCCC3)ccc21 returned miR-21 reporter 0.8%.
Screening CCCN(Cc1cc2cccc(C)c2[nH]c1=O)C(=O)c1cccc(Cl)c1 returned miR-21 reporter 2.4%.
For Cc1ccc(NC(=O)C2CCCN(S(=O)(=O)c3cn(C(C)C)cn3)C2)c(C)c1 (stereo not drawn) the results were miR-21 reporter -0.6%.
Screening Cc1cccc(C(=O)Nc2cc(-c3nc4cccnc4s3)ccc2C)c1 returned miR-21 reporter -4.8%.
CCC(=O)NCCc1sc2nc(-c3ccc(OC)cc3)nn2c1C was read as miR-21 reporter -34.0%.
For O=C(NCC(c1ccco1)S(=O)(=O)c1ccc(Cl)cc1)c1ccccc1F (stereo not drawn) the results were miR-21 reporter -17.8%.
Screening Cc1ccc(N(C)C(=O)C2CCN(S(=O)(=O)c3c(C)noc3/C=C/c3c(C)cc(C)cc3C)CC2)cc1 returned miR-21 reporter 4.8%.
Cc1ccc(CNC(=O)C2CCC(CNS(=O)(=O)c3ccc(C)cc3)CC2)cc1 (stereo not drawn) was read as miR-21 reporter -5.9%.
For Cc1ccc(S(=O)(=O)Cc2nc(-c3ccc(C(=O)NCc4ccccc4F)cc3)oc2C)cc1 the results were miR-21 reporter -0.4%.
COc1ccc(Br)cc1CNC(=O)CCc1cn(Cc2ccc(C)cc2)c2ccccc12 was read as miR-21 reporter 8.8%.
CC1=C(c2ccc(C(C)C)cc2)S(=O)(=O)NC1=NCCCN1CCN(c2ccccc2F)CC1 was read as miR-21 reporter -2.8%.
O=C(CSc1nc2ccccc2n1Cc1ccccc1)NCc1ccccc1 was read as miR-21 reporter 3.1%.
`Cc1ccc(-n2ncc3c(NC4CCCCCC4)ncnc32)cc1` gave miR-21 reporter -31.3%.
O=S(=O)(Nc1ccc(O)c2ccccc12)c1ccc(Br)cc1 was read as miR-21 reporter inconclusive.
CCc1ccc(CNC(=O)c2c(C)oc3ncn(CC(C)C)c(=O)c23)cc1 was read as miR-21 reporter 1.9%.
For Cc1c(-c2ccccc2)c(=O)oc2ccc(OC(=O)N3CCOCC3)cc12 the results were miR-21 reporter -2.5%.
For COc1ccc(N2CCN(C(=O)CCc3c(C)nc4c(-c5ccccc5)c(C)nn4c3C)CC2)cc1 the results were miR-21 reporter 24.8%.
Screening CC1CCc2c(sc(NC(=O)COc3ccccc3C(C)(C)C)c2C#N)C1 (stereo not drawn) returned miR-21 reporter 0.2%.
For CCOc1ccccc1C1CC(=O)NC(C)=C1C(=O)OC1CCCCCC1 (stereo not drawn) the results were miR-21 reporter 16.8%.
Cc1ccc(-n2c(=O)c3ccc(C(=O)NCc4ccco4)cc3n(CC(=O)Nc3ccccc3C(F)(F)F)c2=O)cc1 was read as miR-21 reporter -1.5%.
Screening COC(=O)c1cc(OC)c(OC)cc1NC(=O)c1ccc2c(c1)CCN2S(=O)(=O)c1ccccc1 returned miR-21 reporter 3.3%.
Screening O=C(c1cccc(Br)c1)N1CCN(Cc2cc(=O)n3nc(-c4ccccc4)sc3n2)CC1 returned miR-21 reporter -1.6%.
Cc1cc(C)c(S(=O)(=O)NCC2CCC(C(=O)NCCc3ccccc3)CC2)c(C)c1 (stereo not drawn) was read as miR-21 reporter 0.9%.
CCC(C)NC(=O)c1c(C)oc2nc(C)nc(N3CCOCC3)c12 (stereo not drawn) was read as miR-21 reporter -10.2%.
Cc1nn(Cc2ccccc2)c(C)c1NC(=O)c1cc(C(C)C)on1 was read as miR-21 reporter 8.2%.
`Cc1cc(-n2c(C)nc3ccccc3c2=O)ccc1NC(=O)C(F)(F)F` gave miR-21 reporter -5.3%.
`CC(C)(C)OC(=O)N1CCC(c2c(C(=O)NCCN3CCOCC3)cnn2-c2cccc(Cl)c2)CC1` gave miR-21 reporter 0.9%.
Screening O=C(NCCc1ccccc1)C1CCN(Cc2cc3ccccc3n2Cc2ccccc2)CC1 returned miR-21 reporter 27.9%.
`Cc1ccc2cccc(NC(=O)c3ccc(-c4cccc(Cl)c4)o3)c2n1` gave miR-21 reporter 2.5%.
Screening COC(=O)c1ccc2c(=O)n(CCc3ccc(S(N)(=O)=O)cc3)c(SCC(=O)C(C)(C)C)nc2c1 returned miR-21 reporter 17.1%.

A portion of the library. The share of hits here may be higher or lower than overall.
